# High-throughput results: PubChem, Johns Hopkins Ion Channel Center
# KCNQ2 enhance = potentiators of rat KCNQ2 potassium channel | Potassium voltage-gated channel subfamily KQT member 2 (Rattus norvegicus), O88943 | CHO-K1 KCNQ2, FluxOR thallium flux fluorescence; active compounds read high | B-score at 10 µM | actives 0.54% (n = 310,000) | AID 2239, 2010;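 active means fluorescence ratio B-score at least 3 SD of library B-scores, with initial fluorescence B-score within 3 SD, cut at about 5.3 in these data; same plate scores as AID 2156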;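 further: B-score of peak minus minimum over baseline fluorescence ratio after K+ and Tl+ stimulus; positive B-score means potentiation of KCNQ2 with more thallium influx and brighter signal; only the inactives scoring about 0 or higher are listed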
# Target sequence (O88943 whole entry, looked up): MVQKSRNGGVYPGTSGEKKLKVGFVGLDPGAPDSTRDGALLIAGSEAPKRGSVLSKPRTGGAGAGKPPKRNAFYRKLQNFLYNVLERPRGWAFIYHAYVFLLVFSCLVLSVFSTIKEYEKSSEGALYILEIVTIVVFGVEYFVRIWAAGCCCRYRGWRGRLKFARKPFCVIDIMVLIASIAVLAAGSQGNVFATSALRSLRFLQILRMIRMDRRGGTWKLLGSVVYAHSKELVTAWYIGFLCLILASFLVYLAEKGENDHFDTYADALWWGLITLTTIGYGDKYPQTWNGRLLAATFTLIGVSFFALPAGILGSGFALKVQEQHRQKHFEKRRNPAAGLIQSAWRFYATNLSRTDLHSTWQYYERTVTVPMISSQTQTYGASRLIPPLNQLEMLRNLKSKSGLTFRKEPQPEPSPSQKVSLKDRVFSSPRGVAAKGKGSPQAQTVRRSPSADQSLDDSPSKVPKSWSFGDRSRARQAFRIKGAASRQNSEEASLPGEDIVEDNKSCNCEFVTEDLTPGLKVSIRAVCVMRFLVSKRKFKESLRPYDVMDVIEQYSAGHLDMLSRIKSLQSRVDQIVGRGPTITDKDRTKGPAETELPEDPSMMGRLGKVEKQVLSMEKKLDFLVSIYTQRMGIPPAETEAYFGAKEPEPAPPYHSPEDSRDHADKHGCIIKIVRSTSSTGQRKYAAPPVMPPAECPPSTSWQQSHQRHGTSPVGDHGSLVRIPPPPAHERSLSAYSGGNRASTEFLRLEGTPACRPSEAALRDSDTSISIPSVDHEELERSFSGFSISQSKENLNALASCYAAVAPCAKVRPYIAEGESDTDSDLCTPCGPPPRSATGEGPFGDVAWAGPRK
# KCNQ2 enhance baseline = further read-out of KCNQ2 enhance, marked with its call; B-score; compound at 10 µM; measured here: initial fluorescence intensity artifact check;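 brightness before thallium and not channel activity; 0 = typical well and far values either way flag optical interference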
# An asterisk follows results filed as active. This is a subset, so the mix of outcomes need not match the whole.
KCNQ2 enhance | KCNQ2 enhance baseline | SMILES
1.4 | -0.08 | COC(=O)c1ccc(-c2ncc[nH]2)cc1
0.88 | 0.42 | Cc1cnccc1CN(C)C(=O)CC1C(=O)NCCN1CC1CCCCC1 (stereo not given)
1.4 | -0.78 | Cc1ccccc1NC(=O)c1c([N+](=O)[O-])c(C(C)(C)C)nn1C
1.6 | 0.49 | COc1ccc(-c2c(NC(=O)C(C)C)n(C)c3ccccc3c2=O)cc1
0.34 | -2.2 | CC1CCN(Cc2c(C(=O)N/N=C/c3ccc(OC(C)C)cc3)nnn2-c2nonc2N)CC1
0.66 | 0.37 | O=C(Cc1c[nH]c2ccccc12)NCc1ccccc1F
0.61 | 1.2 | Cc1cc[n+](CC(=O)c2cc3ccccc3oc2=O)cc1
0.9 | -1.6 | Cc1ccccc1NC(=S)NC(=O)Cc1ccc(Cl)cc1
1 | -1.1 | CCCn1c(=O)c2[nH]c(C3CCCC3)nc2n(CCC)c1=O
2 | -1.6 | CCNC(=O)c1ccccc1NC(=O)c1cccc(S(=O)(=O)N2CCOCC2)c1
1.8 | -0.21 | CCOc1ccc(NC(=O)NC23CC4CC(CC(C4)C2)C3)cc1
0.76 | 0.73 | C[C@@H]1CC[C@@]2(O[C@@H](CCO)C[C@H](O)[C@H]2O)O1
1.8 | 0.57 | CN(C)C(=O)C12CCC(C)(C(=O)C1Br)C2(C)C (stereo not given)
0.01 | 0.01 | CC(=O)c1ccc(NC(=O)Cn2cnc(S(=O)(=O)N3CCCC3)c2)cc1
1.1 | 0.78 | CC(=O)C1=C(O)C(=O)N(Cc2ccco2)C1c1ccccc1 (stereo not given)
0.05 | 1.7 | CCOc1cccc(CN2CCC(n3nccc3NC(=O)C3CC3)CC2)c1O
2.3 | 2.6 | COc1ccc(/C=C2\Sc3ccc(C(=O)NC4CC4)cc3N(C)C2=O)cc1OC
0.11 | 0.14 | CCOC(=O)c1[nH]c(C)c(C(=O)OCCN2C(=O)c3ccccc3C2=O)c1C
1.8 | 2.9 | COc1cc(/C=C/C(=O)OCC(=O)NC(=O)NC(C)C)ccc1OCC#N
0.63 | 0.05 | COC(=O)c1sc2ncccc2c1OCc1cccc(Cl)c1
0.17 | 1.4 | CC1=C(C(=O)OCc2ccccc2)C(c2ccsc2)C(C#N)=C(N)O1 (stereo not given)
1.8 | 1.9 | O=C(CN1CCCCCC1)N/N=C/c1ccc2ccccc2c1
1.3 | -2.8 | C/C(=N\NC(=O)Nc1ccccc1)c1ccc2ccccc2c1
0.96 | -0.16 | Cc1nc(NCCc2ccccc2)c(C#N)c(C)c1[N+](=O)[O-]
0.03 | -0.24 | Oc1c(C(Nc2nccs2)c2ccc(C(F)(F)F)cc2)ccc2cccnc12 (stereo not given)
0.77 | -0.01 | COc1ccc(-c2oc3cccnc3c2C#CCO)cc1
1.5 | 0.71 | Cc1cc([N+](=O)[O-])nn1CCCC(=O)N1CCN(c2ccccc2)CC1
0.79 | -0.01 | Cc1ccc(NC(=O)c2ccc3nsnc3c2)c(C)c1
0.36 | 0.8 | CCCOc1ccc(C(=O)NNC(=S)NC(=O)c2cc(-c3ccccc3)nc3ccccc23)cc1
1.8 | -1.7 | Cc1onc(-c2ccccc2)c1C(=O)Nc1ccc2c(c1)OCO2
0.67 | 0.43 | C=CCSC1=C(C#N)C(c2ccc(OCC)cc2)CC(=O)N1 (stereo not given)
1.8 | -1.3 | NC(=O)C(=O)N/N=C/c1c[nH]c2ccc(Br)cc12
0.34 | -0.02 | Cc1cc(N2CCCC2)nc(SCC(=O)c2ccccc2)n1
0.01 | -0.33 | N#CC(C#N)=NNc1ccc(S(=O)(=O)N2CCCC2)cc1
0.32 | -0.07 | Cc1cc(C)nc(SCc2ccc(C(=O)O)o2)n1
0.19 | 4 | CCOc1ccc(NC(=O)N(C2CCCCC2)C2CCN(C(C)=O)CC2)cc1
0.2 | 0.29 | C/C(Cl)=C/CN1C(=O)C2C3C=CC(C3)C2C1=O (stereo not given)
1.7 | -0.47 | COCCCNC(=O)c1cccc(C(=O)NCCCOC)c1
7* | 0.14* | O=C(Cc1ccccc1)N/N=C/c1cc(Br)cc(Br)c1O
2 | 1.2 | CCC(NC(=O)c1cc(COc2ccc(OC)cc2Cl)on1)c1ccncc1 (stereo not given)
1.1 | -0.45 | O=C(CSc1nccc(=O)[nH]1)N1c2ccccc2CCc2ccccc21
0.87 | 1.4 | C/C(Cl)=C/Cn1c(N2CCCC2)nc2c1c(=O)[nH]c(=O)n2C
0.02 | -0.64 | CC(=O)Nc1cccc(C(=O)OC(C)C(=O)Nc2ccc(S(=O)(=O)N3CCCC3)cc2)c1 (stereo not given)
0.04 | -0.96 | CCOC(=O)c1cc(NC(=O)c2cccnc2)ccn1
1.4 | 1.2 | CCCCOc1cccc(C2C(C(=O)c3ccc(C)o3)=C(O)C(=O)N2Cc2ccco2)c1 (stereo not given)
0.31 | -0.06 | COc1ccc(OCc2nnc3n2N=C(c2ccccc2)C(CC(=O)O)S3)cc1 (stereo not given)
1.6 | -0.09 | O=C1CCCCCC1C1(O)C(=O)Nc2ccc(Br)cc21 (stereo not given)
0.14 | 1.9 | Cc1nnc(NC(=O)CCSc2ccc(Cl)cc2)s1
0.56 | 0.81 | CCSc1nnc(N(CCC#N)CCC#N)s1
0.41 | -0.21 | C=CCN(CC=C)C(=O)Nc1cc(OC)ccc1OC
1.2 | 0.29 | COc1cc(F)c(S(=O)(=O)N2CCOc3ccccc32)cc1OC
3.5 | 0.22 | CCOC(=O)c1sc(NC(=S)NC(=O)c2ccccc2)nc1C
5 | 0.07 | O=C(CN1CCCc2ccccc21)N/N=C/c1ccc(O)cc1O
1.7 | -1.5 | CN1CCN(NC(=O)c2cc(S(=O)(=O)N3CCOCC3)c(Cl)cc2Cl)CC1
0.83 | -1.9 | O=C1C(Cl)=C(NCC2CCCO2)C(=O)N1c1ccccc1 (stereo not given)
0.49 | -2.4 | COc1ccccc1/C=N/NC(=O)CNC(=O)c1ccccc1
0.48 | -0.01 | CN1CCN(NC(=O)Nc2ccc(Br)cc2Cl)CC1
0.3 | -0.72 | Cc1ccc(CCNC(=O)C2CC(=O)N(CCc3ccccc3)C2)cc1 (stereo not given)
0.67 | 1.9 | O=S(=O)(c1ccc(-c2n[nH]c(=S)o2)cc1)N1CCCCC1
2.2 | -0.94 | CCOc1ccc(CCNC(=O)c2ccc(CS(=O)Cc3ccc(Cl)cc3)o2)cc1 (stereo not given)

# Next part.
KCNQ2 enhance | KCNQ2 enhance baseline | SMILES
0.55 | 0.65 | O=C(Nc1ccncc1)Nc1ccc(Cl)cc1
0.83 | -0.51 | CCOc1cnn(-c2cc(Oc3ccc(C)cc3)ncn2)c(=O)c1Cl
3.8 | -1.3 | CC(C)(C)OC(=O)NC1CC2CCCC(C1)N2Cc1ccccc1 (stereo not given)
0.93 | -1.2 | CN(Cc1cccs1)C(=O)CSc1nnnn1C
2 | -2 | CCCOc1ccc(/C=N/NC(=O)CSCc2ccc([N+](=O)[O-])cc2)cc1OCC
0.66 | -0.88 | COc1cc2c(cc1OC)CN(S(=O)(=O)c1ccccc1F)CC2
1.4 | -1.1 | Cc1nc(SCC(=O)O)c(C#N)c2c1CCCC2
0.28 | -0.29 | CCOC(=O)C1=C(C)NC2=C(C(=O)c3ccccc32)C1c1cccnc1 (stereo not given)
0.04 | 1.2 | CCCC(CCC)C(=O)NNc1cc(=O)c2c(=O)n(C)c(=O)n(C)c2[nH]1
0.83 | 0.34 | COc1ccc(OC)c(N(CC(=O)N2CCCC2)S(C)(=O)=O)c1
0.1 | 1.8 | CCC[C@H]1COCCS(=O)(=O)N1Cc1ccccc1F
0.11 | 0.29 | CCCCCC(=O)NNC(=O)c1ccc(-c2ccccc2)cc1
0.5 | 0.12 | Cc1nc(C(=O)NC2CC2)sc1C1(C)CC(c2cccc([N+](=O)[O-])c2)=NO1 (stereo not given)
0.47 | 0.29 | CC(NC(=O)COC(=O)CCc1ccccc1)c1ccccc1 (stereo not given)
1.6 | 0.12 | O=C(O)/C=C/c1ccc(OCc2cccc(F)c2)cc1
0.39 | -0.68 | COc1ccc2oc(=O)c(C(=O)NCc3ccc(C)cc3)cc2c1
0.13 | 0.61 | CCO[C@H]1OC(C(=O)N2CCOCC2)=C[C@@H](C)[C@@H]1CCCO
0.06 | -0.54 | O=C(NCc1ccco1)C(=O)NCC1OCCCN1S(=O)(=O)c1ccc(F)cc1 (stereo not given)
0.59 | 0.03 | CC(C)=CCN1CCN(Cc2cn(C(C)C)c3ccccc23)CC1CCO (stereo not given)
0.63 | 1.2 | COc1cccc(-c2c(C(=O)N/N=C(\C)c3ccco3)nnn2-c2nonc2N)c1
0.03 | 2.7 | COc1ccc(S(=O)(=O)N2CCOCC2)cc1Br
0.89 | -2.1 | O=C(O)c1ccc(NS(=O)(=O)c2ccc(Cl)c(Cl)c2)cc1O
0.21 | -0.94 | CN1CCC(=NNC(=O)CSc2ccc(Cl)cc2)CC1
0.1 | -0.49 | CCOC(=O)[C@@H]1CCN(Cc2ccccc2)C[C@H]1c1ccccc1
0.73 | 0.07 | C=CCn1c(C)c(C(C)=O)c(N2CCN(C(c3ccccc3)c3ccccc3)CC2)nc1=S
0.22 | 0.92 | CCOC(=O)c1sc(NC(=O)CSc2nncs2)c(C(=O)OCC)c1C
0.69 | 0.43 | C=CCNC(=S)NNC(=O)CSc1nc2ccccc2s1
0.87 | -0.18 | O=S(=O)(/N=C(/Nc1ccc(Cl)c(S(=O)(=O)N2CCOCC2)c1)c1ccc(F)cc1)c1ccccc1
1.3 | -1.2 | COC(=O)CSc1cc(C(=O)c2nccn2C)c2ccccc2n1
0.51 | -0.97 | COCCn1c(SCC#N)nnc1-c1ccccc1
1.6 | -0.58 | Cc1ccc2nc3nc(NCC4CCCO4)c(C(=O)NC4CCCC4)cc3c(=O)n2c1 (stereo not given)
3.8 | 0.04 | CCc1cc2c(cc3c(=O)n(CC(=O)NCCCN(CC)CC)nc(CC)n32)s1
0.53 | 0.57 | O=C(c1ccco1)c1cn(CC(=O)N2CCCC2)c2ccccc12
0.12 | -1.3 | COC(=O)CNC(=O)CSc1nc2sccc2c(=O)n1-c1ccccc1
0.82 | -0.07 | CCOC(=O)N1CCN(Cc2nc3cc(NC(=O)c4ccco4)ccc3n2CC)CC1
0.28 | -0.33 | CCOC(=O)c1c(/N=C/N(C)C)sc(C(=O)OC)c1C
0.91 | 1.1 | CC(=O)Nc1ccc(S(=O)(=O)N2CCC(NC(=O)C(Cc3ccc(C)cc3)NC(C)=O)CC2)cc1 (stereo not given)
0.62 | -0.22 | O=C(O)C1CC1(c1ccccc1)c1ccccc1 (stereo not given)
0.34 | 0.35 | COCc1cc(=O)n2[nH]c(SC)nc2n1
0.84 | -0.88 | CCC1=C(OC(=O)N(CC)CC)N2C(=O)OC(=NCCOC)[C@]2(Cc2ccccc2)[C@H]2C1=CC[C@H]1C(=O)NC(=O)[C@H]12
0.17 | 1.6 | C/C=C/C(=O)N1CC2(CC(c3cccc(NC(=O)CC(c4ccccc4)c4ccccc4)c3)=NO2)C[C@H]1C(N)=O (stereo not given in full)
0.44 | -0.02 | CC(CCN1CCOCC1)c1ccccc1 (stereo not given)
0.5 | -1.4 | S=C(Nc1ccccn1)NC1CCCCC1
0.47 | -2.4 | Cc1nc2ccc(S(=O)(=O)NC(C(=O)N3CCCCCC3)C(C)C)cc2s1 (stereo not given)
0.2 | 1.8 | CC1(C)CN(O)CCN1O
0.41 | -0.19 | CC(C)(CO)CNC(=O)CCc1nnc(-c2ccc(-c3ccccc3)cc2)o1
0.02 | 0 | O=C(Nc1nccs1)c1ccc(NC(=O)C2CC=CCC2C(=O)O)cc1 (stereo not given)
0.42 | -0.69 | CC(=O)c1ccc(NC(=O)c2cc(C)nc3ccccc23)cc1
0.58 | -0.03 | COc1cc2ncnc(NCc3ccc(C)cc3)c2cc1OC
0.92 | -1.6 | COc1cccc(NC(=O)c2ccc(S(=O)(=O)N(C)C)cc2)c1
0.75 | 0.45 | COc1ccccc1-c1nnc(SCC(=O)NC2CCCCC2)n1C
0.44 | -0.84 | CCOC(=O)c1ccc(NC(=O)CC2C(=O)N(c3cccc(OC)c3)C(=O)N2CCOC)cc1 (stereo not given)
0.31 | -0.14 | COc1ccc(C)cc1NC(=O)C(NC(=O)c1cc(OC)c(OC)c(OC)c1)C(C)C (stereo not given)
0.27 | -1.5 | Cc1nnsc1C(=O)Nc1cccc(Cl)c1C
1.8 | -0.27 | CC(=O)c1c(C)[nH]c(C(=O)NC(C)c2ccccc2)c1C (stereo not given)
0.93 | -0.86 | Cn1ccs/c1=N\C(=O)Nc1cccc(C(F)(F)F)c1
0.06 | -0.06 | COc1ccc2ccccc2c1CNCCN1CCOCC1
0.49 | -0.88 | NNC(=O)CNc1cccc(Cl)c1
